T cruzi repl: inhibitors of intracellular T. cruzi growth, primary screen, luminescence, NIH3T3 host cells; inhibition, % (concentration not given with the values); T. cruzi beta-gal in NIH3T3, 90 h; 300,000 compounds, 1.4% hits;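 active = mean inhibition across valid replicates above about 55%, limit read from the data; inconclusive = mean below that limit but half or more replicates reach it; inactive = mean below it, under half of replicates reach it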;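 also: signal also drops with host cell toxicity which is not excluded here; 0% = plate median of DMSO wells and 100% = zero luminescence signal; higher percent means less beta-gal luminescence so fewer parasites; stock transfer was 50 nL into about 50 µL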
Beta apoptosis: inhibitors of cytokine-induced beta cell apoptosis, primary screen, luminescence; INS-1E cytokine-induced death, ATP luminescence, 48 h; percent of positive-control rescue, neutral wells zero; protection from apoptosis, % (test concentration not listed); 300,000 compounds, 0.8% hits; AID 435005, 2010;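 active = all replicates at 75% or more, or half of them and the mean; inconclusive = half reach 75% but not the mean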;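 also: 0% = cytokine-treated negative control wells and 100% = positive control rescue; higher means more ATP so stronger rescue from cytokine killing; wells of about 40 µL received 100 nL stock; the first replicate is given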
Ecoli growth: E. coli growth inhibition, primary screen, OD600; Escherichia coli growth, 23 h; active compounds read low; OD600 absorbance (test concentration not listed); 330,000 compounds, 0.21% hits;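 active = OD600 absorbance below the run mean of sample wells minus 3.6 SD, in any replicate, cut at about 0.56 in these data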;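 also: stock transfer was 300 nL into about 60 µL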
A1 inh: caspase 3/7 activation in MEF A1-2A-BIM cells, primary screen, A1 inhibitor project, cell-based, luminescence, HTS; AID 2462, 2010; caspase activation, % (test concentration not listed); 330,000 compounds, 0.066% hits; Caspase-Glo 3/7 luminescence, 3 h; percent of clofoctol response, vehicle zero;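 active = over half of replicate activation scores above 10%, or exactly half above 10 with the replicate mean above 10; inconclusive = replicate mean below 10 yet half the replicates above 10; inactive = over half of replicates below 10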;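 also: wells of about 30 µL received 50 nL stock; many hits fall short of the cut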
rRNA inh HTS: reduced GFP signal of wild-type E. coli, primary screen, bacterial rRNA inhibitor project, GFP/RFP fluorescence, OD600, single point | 350,000 compounds, 1.6% hits | E. coli WT GFP vs humanized-ribosome RFP mutants, 24 h; active compounds read low; DMSO median 0, no signal -100 | GFP signal change (wild-type ribosome), % (concentration not given with the values);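 active = significant combined selectivity score with lowered wild-type GFP, culture density cut under 30%, mutant RFP and density less affected; inactive = any of these conditions unmet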; also: one replicate is shown; some compounds called inactive have numbers as strong as hits
UCH37 DUB inh: inhibitors of human UCH37 deubiquitinase, primary screen, biochemical, Ub-AMC cleavage, fluorescence; inhibition, % (no concentration beside the values); 330,000 compounds, 0.33% hits; purified proteasome/UCH37;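 active = mean of two replicates above 20%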;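 also: 0% = compound-free wells with enzyme and 100% = wells lacking proteasome; stock transfer was 100 nL into about 20 µL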
Target sequence (Q9Y5K5 whole entry, looked up): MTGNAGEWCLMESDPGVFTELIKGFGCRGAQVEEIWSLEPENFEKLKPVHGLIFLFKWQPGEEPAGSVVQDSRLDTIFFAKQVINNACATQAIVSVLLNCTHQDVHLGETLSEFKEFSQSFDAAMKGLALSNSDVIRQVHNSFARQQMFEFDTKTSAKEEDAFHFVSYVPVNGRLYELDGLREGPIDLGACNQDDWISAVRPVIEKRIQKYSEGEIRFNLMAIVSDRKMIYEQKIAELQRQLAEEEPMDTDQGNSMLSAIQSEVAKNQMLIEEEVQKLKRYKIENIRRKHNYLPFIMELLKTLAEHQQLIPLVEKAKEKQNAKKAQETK
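Schedule: 30 min plus 25 min, room temperature / Material: human UCH37 within purified proteasomes / Technique: AMC fluorescence intensity at 355/460 nm / Buffer or medium: pH 7.4 Tris-HCl (50 mM) with ovalbumin, ATP-MgCl2, DTT / Controls: wells without proteasome as full block, compound-free enzyme plus substrate as uninhibited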
FGF22 binding: binders of human FGF22 protein, primary screen, FGF22 synaptogenesis inhibitor project, biophysical, thermal shift, single point; recombinant FGF22 thermal shift, SYPRO orange fluorescence; percent of sucrose octasulfate shift, DMSO zero; Fibroblast growth factor 22 (Homo sapiens), Q9HCT0; AID 651658, 2012; 340,000 compounds, 1.5% hits; calls only at 9.99 µM;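 active = melting point raised past a set limit in the mean and every replicate; inconclusive = no clear call; three in four hits are not shown here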
Target sequence (Q9HCT0 whole entry, looked up): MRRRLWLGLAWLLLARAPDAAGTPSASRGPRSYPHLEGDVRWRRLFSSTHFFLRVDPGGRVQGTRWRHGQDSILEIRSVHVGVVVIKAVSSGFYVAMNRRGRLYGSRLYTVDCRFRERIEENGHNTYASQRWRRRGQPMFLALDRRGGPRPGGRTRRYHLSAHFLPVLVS
AF4-AF9 inh: inhibitors of AF4 peptide binding to AF9, primary screen, biochemical, AlphaScreen, biotin-AF4 peptide, FLAG-AF9, single point | AID 651704, 2012 | 350,000 compounds, 0.47% hits | Protein AF-9 (Homo sapiens), P42568 | inhibition, % at 10 µM;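 active = every replicate reaching a set inhibition limit, whatever the replicate mean, cut at about 25% in these data; inconclusive = mean inhibition reaches that limit but some replicates miss it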;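 also: 0% = plate neutral control median and 100% = total signal loss; the record names both 10 and 1 µM as test concentration; the first replicate is given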
rRNA inh HTS OD600: further read-out of rRNA inh HTS, marked with its call; OD600 change, %; measured here: OD600 growth;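 optical density of the mix in the first replicate; 0 = DMSO median and -100 = no signal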
rRNA inh HTS RFP: also measured in rRNA inh HTS; calls as there; RFP signal change, %; measured here: RFP humanized mutant strains;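 first replicate; 0 = DMSO median and -100 = no signal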
The depositor's hits bear a star; i = inactive; ? = inconclusive; / = not tested or not shown.

Each structure is followed by: T cruzi repl	Beta apoptosis	Ecoli growth	A1 inh	rRNA inh HTS	rRNA inh HTS OD600	rRNA inh HTS RFP	UCH37 DUB inh	FGF22 binding	AF4-AF9 inh
Cc1ccc(C(=O)N2CCCC(N3CCN(c4cccc(C(F)(F)F)c4)CC3)C2)s1 (centres undefined)
    23.7	3.3	0.742	-0.1	-43.6	-72.8	-8.8	3.1	i	3.1
COc1cccc(C2(c3cccc(OC)c3)CC2C(=O)Nc2cccc3ccccc23)c1 (centres undefined)
    12.1	2.5	0.745	1.3	/	/	/	1.9	/	/
Cc1ccc(CN2CC(=O)N3[C@H]4c5ccccc5OC[C@@H]4[C@H](c4ccccc4)[C@]3(C)C2=O)cc1
    /	11.8	/	0.5	7.8	-5.2	10.9	0.9	i	3.9
Cc1ccc(NC(=O)C2COc3ccccc3O2)cc1 (centres undefined)
    -3.0	-2.3	0.679	-1.1	11.8	-1.6	0.6	2.3	i	-2.1
COCC(C)NC(C(=O)Nc1ccc(Cl)c([N+](=O)[O-])c1)c1ccccc1 (centres undefined)
    -8.1	-2.9	0.701	2.3	/	/	/	4.4	/	/
CCc1ccc(C(=O)/C=C/Nc2ccc(S(=O)(=O)Nc3onc(C)c3C)cc2)cc1
    -12.3	-4.8	0.673	1.1	/	/	/	11.2	/	/
COc1ccccc1C(=O)NS(=O)(=O)c1ccc(C)cc1
    /	4.0	0.674	0.3	5.8	0.8	-3.0	0.1	i	0.9
CC1CCCC(NC(=O)COC(=O)c2ccc(Cl)nc2)C1C (centres undefined)
    /	-6.3	0.654	-1.0	20.2	22.5	2.6	1.7	i	-0.3
CCOc1cc(/C=C(\C#N)C(=O)NCc2cccnc2)ccc1O
    -14.1	-5.7	0.69	0.5	-18.4	-12.5	-1.3	2.9	i	3.1
CS(=O)(=O)N1CCN(C(=O)c2ccc3c(c2)OCCO3)CC1
    1.5	/	0.658	0.3	1.2	-11.6	0.6	4.2	i	-4.0
CN(C)CCCNC(=O)c1ccccc1Oc1ccccc1
    0.1	/	0.646	-0.7	18.5	9.0	-2.7	2.9	i	-0.4
O=S(=O)(Cc1cc(-c2ccccc2Cl)no1)c1ccccc1
    -2.3	-1.1	0.65	0.2	-26.0	-42.2	-8.9	4.4	i	-2.3
Cc1ccc(NC(=O)CNc2ccc(OC(C)C)cc2)c(C)c1
    31.2	8.8	0.695	1.1	/	/	/	2.1	/	/
Cc1cc(Nc2ccccc2)n(C(=O)c2ccccc2)n1
    -14.9	-0.1	0.647	-0.2	/	/	/	4.4	/	/
c1ccc(Cc2nnc3sc(-c4cccnc4)nn23)cc1
    23.3	-15.2	0.676	0.4	/	/	/	0.3	/	/
N/C(Cc1ccc(Cl)c(Cl)c1)=N\OC(=O)c1cccs1
    37.1	-3.8	0.639	0.1	/	/	/	2.6	/	/
Cc1scc(C(=O)N/N=C/c2ccc(Cl)s2)c1C
    21.6	5.3	/	0.1	8.3	8.4	0.3	/	/	2.8
O=C(CCN1C(=O)/C(=C\c2ccccc2)SC1=S)NCCCN1CCOCC1
    -21.1	-6.3	0.686	-0.8	-3.3	12.2	3.6	10.0	i	4.4
CCOc1ccc(CCNC(=O)C2CC=CCC2C(=O)OC(C)C)cc1OCC (centres undefined)
    19.5	1.6	0.655	0.3	5.6	17.6	2.8	2.0	i	-1.6
CC(=O)Nc1ccc(OCC(O)CN2CCN(c3cccc(Cl)c3)CC2)cc1 (centres undefined)
    3.4	4.6	0.706	-1.0	/	/	/	2.6	/	/
Cc1ccc(Oc2cnc3ccccc3n2)cc1
    -15.8	-5.7	0.718	-1.7	/	/	/	-1.9	/	/
O=C(c1ccc(COc2ccccc2Br)cc1)N1CCCCCC1
    37.6	30.4	0.661	-0.9	/	/	/	6.5	i	-4.0
Cc1ccc(N(C(=O)CCl)C(C(=O)NC2CCCCC2)c2cccnc2)cc1C (centres undefined)
    24.9	1.1	0.675	2.7	/	/	/	-0.5	/	/
CCOc1ncccc1C(=O)OCC(=O)N1CCN(S(=O)(=O)c2ccc(Cl)cc2)CC1
    5.3	1.6	0.709	0.0	/	/	/	5.3	/	/
COc1ccc(OC)c(Nc2nc(NCCC(C)C)nc(N)c2[N+](=O)[O-])c1
    18.3	/	0.698	0.2	9.3	-7.8	1.2	4.9	i	-0.6
N#Cc1cncc(-c2ccc3c(c2)OCCOCCOCCOCCOCCO3)n1
    22.6	-3.1	0.675	0.2	22.5	-2.4	-3.0	9.6	i	-1.7
CCN(CC)c1ccc(C(=O)N/N=C(\C)c2cccc(OC)c2)cc1
    10.6	-0.3	/	-1.4	-11.8	-11.5	-5.8	/	i	-63.3
COc1ccccc1NC(=O)c1csc2c1CCCC2
    -18.8	-25.4	0.717	-0.7	/	/	/	2.8	/	/
COc1ccccc1NS(=O)(=O)c1ccc2oc(SCC(C)=O)nc2c1
    -17.7	-4.8	0.691	0.6	-3.1	-9.4	0.8	-0.1	i	2.2
O=C(COC(=O)CNC(=O)c1ccc(Cl)c([N+](=O)[O-])c1)NNC(=O)c1ccccc1F
    /	0.6	0.727	-0.4	1.1	11.3	-4.0	2.7	i	-1.1
CCOc1ccccc1NC(=O)C1CCCN1S(=O)(=O)c1ccccc1C(F)(F)F (centres undefined)
    /	/	0.665	/	-6.1	-6.9	-1.6	4.3	i	-0.6
CCN1CCCC1CNC(=O)C(=O)NCCc1ccc(OC)c(OC)c1 (centres undefined)
    -5.4	-3.1	0.698	0.0	8.5	9.4	1.4	3.8	i	-0.6
Nc1nc(SCc2nc3scc(-c4cccs4)c3c(=O)[nH]2)n[nH]1
    -8.9	0.1	0.705	0.0	/	/	/	2.8	/	/
COc1ccc(NC(=O)c2cc(-c3ccco3)nc3ccccc23)cn1
    /	-2.7	0.74	0.3	4.6	6.8	-1.0	-67.5	i	-1.7
CNC(=O)c1ccc(NC(=O)Nc2ccccc2)cc1
    -6.1	-0.6	0.698	-7.3	-1.2	1.6	-0.4	1.3	i	-0.5
CC(NC(=O)C1CCN(S(=O)(=O)N2CCCCCC2)CC1)c1ccccc1 (centres undefined)
    1.5	3.1	0.686	0.1	/	/	/	3.7	/	/
Cc1ccc(-c2nnc(SCC(=O)N/N=C/c3ccccc3C(=O)O)n2-c2ccccc2)cc1
    0.1	/	/	-0.1	3.7	4.5	0.9	/	i	-1.6
CCCOc1cccc(C2/C(=C(/O)c3ccc4c(c3)CC(C)O4)C(=O)C(=O)N2CCN2CCOCC2)c1 (centres undefined)
    -12.5	-2.1	0.611	0.1	-4.9	-2.7	0.4	9.2	i	0.2
CC12CN3CC(C)(CN(C1)C3c1ccc3c(c1)OCO3)C2=O (centres undefined)
    -3.0	/	0.65	/	3.1	6.3	0.0	4.4	i	-0.4
Cc1cccc(N(C(=O)CNC(=O)c2cccs2)C(C(=O)NC2CCCC2)c2ccncc2)c1 (centres undefined)
    4.4	-2.9	0.712	-0.6	2.9	5.5	-1.5	3.4	i	0.9
CCN(CC)c1ccc(/C=N/NC(=O)Cc2cccs2)cc1
    5.9	1.5	/	-1.2	9.9	-0.7	11.1	/	i	3.6
Cc1ccc(N(Cc2cc3cc(C)ccc3[nH]c2=O)S(=O)(=O)c2ccccc2)cc1
    -8.1	6.4	0.714	1.5	/	/	/	-6.6	i	2.1
COc1ccc2c(c1)N(C)C(=O)CC(c1ccccc1)=N2
    -19.4	-11.2	0.706	0.1	/	/	/	4.7	/	/
Cc1nc2ccccn2c1C(=O)Nc1ccc(Cl)cc1
    -4.5	-6.0	0.671	-0.5	-18.0*	-3.2*	2.3*	1.9	/	0.3
O=C(Nc1ccccc1)c1ccn[nH]1
    -4.6	-0.4	0.671	-4.9	/	/	/	1.1	/	/
CC(C(=O)N1CCCc2ccccc21)N1CCN(S(=O)(=O)c2ccccc2F)CC1 (centres undefined)
    26.2	-3.1	0.789	-0.1	/	/	/	2.1	/	/
O=C(Nc1ccc2c(c1)OCO2)c1cccc(Cl)c1
    -6.0	5.7	0.726	-13.0	/	/	/	0.5	/	/
Cc1c(C(=O)c2ccc([N+](=O)[O-])cc2)c(=O)n(C)c(=O)n1C
    6.0	-2.5	0.675	0.5	0.2	-0.1	-1.2	1.3	i	0.4
Cc1cc(-c2nnc(CCC(=O)N(C)C(C)c3cccs3)o2)no1 (centres undefined)
    -1.8	-7.5	0.74	0.0	3.8	-7.3	-3.2	-2.7	i	-2.7
Clc1ccc(-n2nnnc2-c2ccccc2)cc1Cl
    /	8.2	0.672	?	-16.9	-28.5	-1.1	1.4	/	-0.7
c1coc(CN(Cc2cccs2)Cc2nnnn2C2CCCCC2)c1
    17.2	1.8	0.734	0.8	/	/	/	-2.3	/	/
Cn1cnnc1SCC(=O)Nc1ccc(N2CCOCC2)cc1
    -6.5	0.4	0.725	1.7	1.5	5.0	2.3	1.1	i	-5.2
CCOC(=O)c1c(C)[nH]c(C(=O)CSc2nnnn2-c2ccccc2)c1C
    -9.6	9.5	0.7	0.1	/	/	/	0.7	/	/
CCN(CC)c1ccc2c(O)cc(=O)oc2c1
    5.7	-1.6	0.695	0.1	-9.0	2.6	16.4	-120.1	/	-1.2
CCN(CC)S(=O)(=O)c1ccc2c(c1)N(CC(=O)NCCCN1CC(C)CC(C)C1)C(=O)CO2 (centres undefined)
    11.8	/	0.707	/	16.4	17.9	7.3	4.0	i	-13.8

Some of the compounds tested; rates above refer to the full screens.
